High-throughput results deposited in PubChem by several laboratories.
Vif TR-FRET: HIV-1 Vif–A3G interaction blockers – biochemical, TR-FRET, GST-Vif 1-94, biotin-A3G peptide, dose response retest, primary screen (AID 1117319) | TR-FRET GST-Vif / biotin-A3G peptide binding; higher % means a stronger effect; test concentration not given here; strong numbers were not always called active | inhibition, %, or IC50 in µM where a hit was titrated | 0.57% of 260,000 active;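 active = above the screen mean plus three standard deviations and confirmed in dose response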;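 note: Vif residues 1-94 fused to GST binding biotinylated APOBEC3G peptide 110-148; 0% = full assay without inhibitor and 100% = GST in place of GST-Vif; retest series ran down from 100 µM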
HNF4A DNA FP: change in binding of human HNF4 alpha to DNA | P41235 | HNF4a-FITC DNA binding, fluorescence polarization, 1 h | activity change, % at 10 µM | 0.3% of 360,000 active | AID 1224865; in the data active = activity change above about 30%, passing the limit was not always enough;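 note: controls were the assay level and a saturating level of protein; the project sought stronger binding though the title names inhibitors; some compounds called inactive have numbers as strong as hits; positive values seem to mean higher polarization but the record does not say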
Target sequence (P41235 whole entry, looked up): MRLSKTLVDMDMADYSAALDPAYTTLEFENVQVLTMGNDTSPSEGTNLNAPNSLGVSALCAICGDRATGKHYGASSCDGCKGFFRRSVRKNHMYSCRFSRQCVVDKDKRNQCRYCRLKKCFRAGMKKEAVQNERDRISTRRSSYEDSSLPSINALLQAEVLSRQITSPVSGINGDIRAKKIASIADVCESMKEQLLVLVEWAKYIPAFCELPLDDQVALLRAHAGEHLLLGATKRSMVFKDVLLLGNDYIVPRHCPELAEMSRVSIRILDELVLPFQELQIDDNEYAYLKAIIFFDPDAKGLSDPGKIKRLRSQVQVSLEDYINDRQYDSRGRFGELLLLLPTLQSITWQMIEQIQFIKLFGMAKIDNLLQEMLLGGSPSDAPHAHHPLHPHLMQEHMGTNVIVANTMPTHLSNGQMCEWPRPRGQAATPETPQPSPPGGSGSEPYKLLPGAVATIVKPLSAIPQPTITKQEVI
* marks the source's active call; other numbers are inactive results. These rows are one share of the data; rates above refer to the full screens.

SMILES	Vif TR-FRET	HNF4A DNA FP
C[C@@H]1CN([C@@H](C)CO)C(=O)c2c(c3ccccc3n2C)-c2ccccc2CO[C@H]1CN(C)C(=O)[C@H](Cc1ccccc1)N(C)C	1.3%	0.7
Cc1ccccc1-c1ccc2c(c1)O[C@@H](CN(C)C(=O)Nc1ccc(C(F)(F)F)cc1)[C@H](C)CN([C@@H](C)CO)S2(=O)=O	-0.4%	0.7
O=C(CCNC(=O)N1CC(=O)Nc2ccccc21)NCCc1ccc(Cl)cc1	-2.6%	2.9
CC(C)CN(C(=O)COC(=O)c1cccs1)c1c(N)n(Cc2ccccc2)c(=O)[nH]c1=O	4.8%	0.8
CC1=C(C(=O)N2CCOCC2)CC(CC(=O)NCCCCc2ccccc2)C(=O)N1Cc1ccc(F)cc1 (stereo unspecified)	-4.4%	0.2
COc1ccc(C(CNC(=O)c2ccc(-c3ccccc3Cl)o2)N2CCCC2)cc1 (stereo unspecified)	-2.1%	2.5
O=S(=O)(Cc1ccccc1)C(c1ccccc1)S(=O)(=O)Cc1ccccc1	-3.0%	3.6
CCN(CC)S(=O)(=O)c1ccc(N2CCOCC2)c(NS(=O)(=O)c2ccc(Cl)s2)c1	7.0%	5.3
COc1cc2nc3n(c(=O)c2cc1OC)-c1cc2ccccc2cc1C(=O)NC3CC(C)C (stereo unspecified)	4.9%	1.8
Cc1ccc(C(=O)OCC(=O)NC2CCCC(C)C2C)s1 (stereo unspecified)	12.1%	-7.5
C[C@@H]1CN([C@@H](C)CO)S(=O)(=O)c2ccc(Br)cc2O[C@H]1CN(C)C(=O)C1CCOCC1	2.9%	1.1
C[C@@H]1CN([C@H](C)CO)C(=O)c2cc(Br)cnc2O[C@H]1CN(C)C	0.7%	-5.5
COc1ccc(CNC(=O)c2ccccc2NC(=O)C2=C(C)OCCS2)cc1	-3.6%	-0.9
C[C@H](CO)N1C[C@H](C)[C@@H](CN(C)S(=O)(=O)c2cccc(C#N)c2)OCc2cn(nn2)CCCC1=O	3.5%	-2.4
CSC1=NN(c2ccccc2)CN(c2ccccc2)N1C	1.7%	1.0
O=S(=O)(Nc1ccccc1Br)c1cccc2cccnc12	-2.1%	-3.9
C[C@@H]1CN([C@H](C)CO)C(=O)CCCn2nncc2CO[C@@H]1CN(C)C(=O)c1ccccc1	-2.5%	-5.7
C[C@H](O)[C@@H]1CN2CCc3c([nH]c4ccc(-c5ccc6c(c5)OCO6)cc34)[C@@H]2C[C@@H]1N(C)C(=O)Nc1cc(Cl)cc(Cl)c1	3.5%	7.8
COc1cc(-c2ccc3cc(OC)c(OC)c(OC)c3c2)cc(OC)c1OC	3.5%	-2.0
CCOc1ccc(C(=O)N[C@H](C(=O)NC2CCCCC2)C(C)C)cc1	-10.0%	-3.0
O=S1(=O)C[C@@H](N2CCC(Cc3ccccc3)CC2)[C@H](COCc2ccccc2)N1	-4.9%	-2.5
COc1ccc(NC(=S)Nc2ccc(S(=O)(=O)N3CCCCC3)cc2)cc1	-2.9%	-2.5
O=C(NCCN1CCOCC1)C1CCN(S(=O)(=O)c2ccccc2)CC1	0.1%	-0.2
CC(C)(C)Cc1c(-c2ccc(Cl)cc2)nc2ccc(Cl)cn12	9.5%	1.9
O=C(CCn1cccn1)N1CCCC(Nc2ccc(F)c(F)c2)C1 (stereo unspecified)	5.1%	4.4
(further entries)
SMILES	Vif TR-FRET	HNF4A DNA FP
C[C@@H]1CN([C@@H](C)CO)C(=O)CCCn2nncc2CO[C@@H]1CN(C)S(=O)(=O)c1ccc(Oc2ccccc2)nc1	-3.4%	-2.0
COc1ccc(CN2C(=O)C(CC(=O)NCCCCc3ccccc3)CC(C(=O)N3CCOCC3)=C2C)cc1 (stereo unspecified)	-6.7%	2.4
COc1ccc(Cn2ccnc2SCC(=O)Nc2ccc(F)cc2F)cc1	-7.9%	2.6
O=C(NNC(=O)c1ccccc1-n1cccc1)c1cccnc1	-0.1%	-0.3
CC1CCCCC1NC(=O)CSc1nnc(-c2ccco2)n1N (stereo unspecified)	0.6%	2.5
CCc1cc(C(=O)NC2CCCc3c2cnn3-c2ccc(F)cc2F)no1 (stereo unspecified)	2.1%	2.5
O=S(=O)(c1ccc(Cl)cc1)N1CCN(c2nc(C(F)(F)F)nc3ccccc23)CC1	-35.1%	1.6
CCCCN(C(=O)COC(=O)C1(c2ccccc2)CC1)c1c(N)n(CCC)c(=O)[nH]c1=O	-2.4%	-1.2
CCCN(CC1CC1)C(=S)NC(=O)c1ccccc1C	-0.3%	-0.2
Cc1ccc(Cl)cc1NCN1C(=O)c2ccccc2C1=O	-0.5%	-1.7
Cc1c(Cl)ccc(S(=O)(=O)N2CCN(C)CC2)c1Cl	-0.9%	-4.1
Cc1ccc(S(=O)(=O)N(C)CC(=O)N(C)CCOc2ccccc2)cc1	-5.4%	1.9
COc1cccc(/C=C/C(=O)OCC(=O)c2ccc(Br)cc2)c1	-2.9%	0.1
O=C(Nc1ccc2c(c1)[C@@H]1C[C@@H](CC(=O)N3CCCCC3)O[C@@H](CO)[C@@H]1O2)NC1CCCCC1	-4.0%	-1.7
CCN(CC)C(=O)C(c1ccccc1)S(=O)(=O)N1CCOCC1 (stereo unspecified)	7.9%	0.9
CC1NC(=O)c2cc3ccccc3cc2-n2c1nc1cc(F)ccc1c2=O (stereo unspecified)	-6.5%	-0.8
C[C@H](CO)N1C[C@H](C)[C@@H](CN(C)Cc2ccc3c(c2)OCCO3)OCc2cnnn2CCCC1=O	-5.1%	1.8
CCN(CC)C(=O)C1=C(C)N(CCCOC)C(=O)C(CC(=O)NC2CCCCC2)C1 (stereo unspecified)	1.5%	-2.1
Nn1c(SCC(=O)NC2CCCCCC2)nnc1-c1ccco1	-1.0%	-1.7
COc1ccc(NC(=O)COc2ccccc2C(N)=O)cc1S(=O)(=O)N1CCCCC1	-3.8%	3.1
Cc1ccc(C(=O)NC(=S)c2c(C)cc3ccccn23)cc1	3.7%	2.1
COc1cc2c(cc1OC)C(=O)C(Br)CC2 (stereo unspecified)	1.48µM*	5.0
CCCNC(=O)C[C@H]1C[C@H]2c3cc(NC(=O)Nc4ccc(F)cc4)ccc3O[C@H]2[C@@H](CO)O1	-10.3%	-4.3
COCC(C)n1c(SCC(=O)Nc2cccnc2Cl)nc2ccccc2c1=O (stereo unspecified)	0.2%	1.1
Cc1ccc(-n2c(SCC(=O)NC3CCS(=O)(=O)C3)nc3ccccc3c2=O)c(C)c1 (stereo unspecified)	-6.6%	1.4

Arranged by length of the SMILES (falling): part of the list above.
SMILES	Vif TR-FRET	HNF4A DNA FP
CCc1cc(C(=O)NC2CCCc3c2cnn3-c2ccc(F)cc2F)no1 (stereo unspecified)	2.1%	2.5
CCN(CC)C(=O)C(c1ccccc1)S(=O)(=O)N1CCOCC1 (stereo unspecified)	7.9%	0.9
CCCN(CC1CC1)C(=S)NC(=O)c1ccccc1C	-0.3%	-0.2

Full records, quoted from the list. Order of values: Vif TR-FRET | HNF4A DNA FP
Record of C[C@H](CO)N1C[C@H](C)[C@@H](CN(C)Cc2ccc3c(c2)OCCO3)OCc2cnnn2CCCC1=O = -5.1% | 1.8
Record of C[C@@H]1CN([C@@H](C)CO)C(=O)CCCn2nncc2CO[C@@H]1CN(C)S(=O)(=O)c1ccc(Oc2ccccc2)nc1 = -3.4% | -2.0
Record of Cc1ccc(C(=O)NC(=S)c2c(C)cc3ccccn23)cc1 = 3.7% | 2.1
Record of O=C(CCNC(=O)N1CC(=O)Nc2ccccc21)NCCc1ccc(Cl)cc1 = -2.6% | 2.9
Record of CCN(CC)C(=O)C(c1ccccc1)S(=O)(=O)N1CCOCC1 (stereo unspecified) = 7.9% | 0.9

Remaining list, next part
SMILES	Vif TR-FRET	HNF4A DNA FP
COc1ccc(-c2ccc3[nH]c4c(c3c2)CCN2C[C@@H]([C@H](C)O)[C@@H](N(C)C(=O)Nc3cc(Cl)cc(Cl)c3)C[C@@H]42)cc1	-0.4%	16.8
O=C(NC(=S)Nc1cc(Cl)ccc1Cl)c1ccco1	-9.5%	-3.1
COc1ccc(S(=O)(=O)N2CCOCC2)cc1NC(=O)c1ccc(SC)cc1OC	-9.3%	2.0
OCCCN1CNC(=S)NC1	-0.3%	0.9
C[C@H](CO)N1C[C@H](C)[C@H](CN(C)C(=O)c2ccc(N3CCN(C)CC3)cc2)OCc2cnnn2CCCC1=O	0.9%	4.3
COc1ncnc2c1ncn2CCCNCCN1CCOCC1	2.2%	-1.1
CN(C)C1CCCCC=CC(=O)NC1 (stereo unspecified)	5.2%	-3.4
C[C@@H]1CCCCO[C@@H](CN(C)C(=O)Nc2ccccc2)[C@@H](C)CN([C@H](C)CO)C(=O)c2cc(N(C)C)ccc2O1	-2.8%	4.7
COc1ccc2cc(C3=CC(=O)CC(C)(C)C3=O)ccc2c1	4.2%	5.0
CN(C)C(=O)c1cccc(COc2ccc(N3C(N)=NC(N)=NC3(C)C)cc2Cl)c1	0.8%	-3.9
Cc1cccc(OC(=O)Nc2ccc(C(=O)O)c(O)c2)c1	12.2%	-7.3
CC1CN(S(=O)(=O)c2cccc(C(=O)Nc3ccc(N4CCCCC4)cc3)c2)CC(C)O1 (stereo unspecified)	2.6%	0.6
O=C(CSc1ccc(Cl)cc1)NC1CC1	-3.4%	2.2
C[C@H](CO)N1C[C@H](C)[C@H](CN(C)C(=O)Cc2ccncc2)Oc2ncc(Br)cc2C1=O	4.0%	2.2
CCOc1ccccc1-n1nnnc1SCC(=O)N(C)C1CCS(=O)(=O)C1 (stereo unspecified)	2.0%	-0.9
CCCCCCN1C[C@@H](n2cc(-c3ccc(F)cc3)nn2)[C@H](O)C[C@@H]1c1ccc(Cl)cc1	-1.8%	-2.7
Cc1ccccc1C(=O)NC1CC2CCCC(C1)N2CC(C)C (stereo unspecified)	2.0%	-3.6
CSc1ncnc2c1ncn2CCCN1CCN(c2ncccn2)CC1	8.6%	-0.7
C[C@H](O)[C@@H]1CN2CCc3c([nH]c4ccccc34)[C@@H]2C[C@@H]1N(C)Cc1cc(Cl)cc(Cl)c1	-5.0%	-3.0
CCC(C)[C@H](N)C(=O)N[C@H]1CCC2C3CC=C4C[C@@H](O)CC[C@]4(C)C3CC[C@@]21C (stereo partly specified)	2.1%	2.0
CCCN1CCN(C(=O)c2ccc(CS(=O)c3ccc(Br)cc3)o2)CC1 (stereo unspecified)	2.0%	0.0
COC(=O)c1cccc(NC(=O)/C(=C\c2ccco2)NC(=O)c2ccco2)c1	-1.4%	5.4
O=NN(CCCl)C(=O)NCCc1cccc[n+]1[O-]	-2.3%	1.0
COC(=O)[C@@H](NS(=O)(=O)c1cc(Br)ccc1Br)C(C)C	5.2%	0.5
CCCCN1C(=O)C(CC(=O)NCCN2CCOCC2)CC(C(=O)N(CC)CC)=C1C (stereo unspecified)	-1.7%	-0.1
Continued.
SMILES	Vif TR-FRET	HNF4A DNA FP
Nc1ccc2c3c(ccc([N+](=O)[O-])c13)CC2	-1.2%	-2.2
COc1ccc(S(=O)(=O)N(C)C[C@@H]2OCCCC[C@H](C)Oc3ccc(NC(=O)Nc4ccc(C(F)(F)F)cc4)cc3C(=O)N([C@H](C)CO)C[C@H]2C)cc1	0.8%	-1.0
Cc1cc2c(cc1C)C(=O)CCC2	-3.1%	-4.1
COc1ccccc1S(=O)(=O)N(C)C[C@@H]1Oc2ncc(-c3ccc(C)cc3)cc2C(=O)N([C@H](C)CO)C[C@@H]1C	4.2%	-5.4
C#CCN(C[C@H]1[C@H](OC(=O)NCc2ccco2)[C@H](OC(=O)NCc2ccco2)C[C@H]2C(=O)N(c3ccccc3)C(=O)[C@@H]12)S(=O)(=O)c1ccc(C)cc1	6.6%	-3.8
O=[N+]([O-])c1ccc(CN2CC(N3CCC(Cc4ccccc4)CC3)CS2(=O)=O)cc1 (stereo unspecified)	-2.1%	-4.9
CCc1nc(NCc2cccs2)c2nnn(Cc3ccccc3)c2n1	-4.5%	1.5
O=C(O)c1ccc(Cl)cc1NC(=O)C1CCN(S(=O)(=O)c2cccs2)CC1	0.7%	3.3
COc1ccc(C(C)=O)cc1OCc1ccccc1	6.8%	2.4
O=[N+]([O-])c1ccc(CN2CC(N3CCN(CCO)CC3)CS2(=O)=O)cc1 (stereo unspecified)	4.5%	-4.5
O=C1OCCC1=COCCOC=C1CCOC1=O	-2.1%	2.2
COc1ccccc1N(C)S(=O)(=O)c1ccc(C(=O)N(C)Cc2cccc(F)c2)cc1	-5.8%	2.6
CCOCCCNC(=O)Cn1nc(-c2ccc(OC)c(OC)c2)ccc1=O	1.6%	5.2
COc1ccccc1N1CCN(C(=O)CCCCCn2c(=S)[nH]c3cc4c(cc3c2=O)OCO4)CC1	-22.3%	3.4
Cc1c(NC(=O)c2cccc(NC(=O)Cc3ccccc3Cl)c2)c(=O)n(-c2ccccc2)n1C	-2.4%	2.7
CCN(CC)C(=O)C1=C(C)N(Cc2ccccc2)C(=O)C(CC(=O)NCCN2CCOCC2)C1 (stereo unspecified)	8.0%	1.5
CCCCCC(=O)N1C[C@@H](O)[C@H](n2cc(C3CC3)nn2)C[C@@H]1c1ccc(Cl)cc1	2.6%	2.2
Cc1ccc(C(=O)NCC(=O)OCc2nnc(-c3ccc([N+](=O)[O-])cc3)o2)cc1	1.4%	-1.4
COC(=O)NC1CC2C=CC1C1C=CC21 (stereo unspecified)	-2.3%	3.7
CC(C)C1C(=O)N(Cc2cn(CCC3OCCCO3)nn2)CCS(=O)(=O)N1Cc1ccc(-c2cccc(CO)c2)cc1 (stereo unspecified)	-3.1%	-9.9
C[C@@H]1CN([C@@H](C)CO)C(=O)c2cc(Br)cnc2O[C@H]1CN(C)C(=O)CN1CCOCC1	-1.0%	-2.0
O=C(COC(=O)CCNS(=O)(=O)c1ccc(Cl)cc1)NCc1ccccc1	-7.5%	3.6
C[C@@H]1CCCCO[C@H](CN(C)Cc2ccc(Cl)c(Cl)c2)[C@@H](C)CN([C@H](C)CO)C(=O)c2cc(N(C)C)ccc2O1	-3.0%	6.6
